From PubChem
Biofilm kill mix – clotrimazole potentiators killing C. albicans biofilm, primary screen, 4-compound mixtures | C. albicans biofilm persisters + clotrimazole, fluorescence viability; primary screen in compound mixtures of four per well | inhibition, % at 7.6 µM | 120,000 compounds, 0.02% hits;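 active = inhibition above 30.3% in the primary screen of four-compound pools, then above 30% when the compound was retested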;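 also: compounds exposed to preformed 24 h biofilms for 48 h; the number belongs to the whole pool; some results filed as inactive read as strong as hits; inactives centre near 12; 0% = biofilm with clotrimazole alone and 100% = kill control; retested singly at about 60 µM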
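Probe or stimulus – Clotrimazole 50 µg/mL co-treatment · System – C. albicans biofilms · Schedule – 24 h biofilm formation, then 48 h compound exposure, 37 °C · Evaluation – percent inhibition of biofilm viability · Technique – 2-h Alamar Blue fluorescence, 535/590 nm excitation/emission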
* hit, by the source's call; & = joins results of further samples. This is a subset, so the mix of outcomes need not match the whole.

SMILES | Biofilm kill mix
O=C(C1=NN[C@@H]2C(=O)N(Cc3ccccc3)C(=O)[C@H]12)c1ccc([N+](=O)[O-])cc1 | 17
CCOc1ccc(-n2c(SCc3ccc([N+](=O)[O-])cc3)nnc2-c2ccc(OC)cc2)cc1 | 0
O=C(c1nn2c(C(F)(F)F)cc(-c3cccs3)nc2c1Br)N1CCCc2ccccc21 | 11
CS(=O)(=O)Nc1ccc(S(=O)(=O)N2CCCC2)cc1 | -6
O=C(COC(=O)c1ncc(Cl)c(Cl)c1Cl)Nc1ccccc1OC(F)F | 21
COc1ccc(/C=N/Nc2nc(-c3cccc(S(=O)(=O)N4CCCC4)c3)cs2)c(OC)c1 | 11
COC(=O)C1CSC(C(=O)OC)N1C(=O)CN1CCN(c2ccccc2)CC1 (stereo not given) | 8
O=C(Nc1ncc(Cc2cccc(Cl)c2)s1)c1ccc([N+](=O)[O-])cc1 | 19
COc1cc(OC)cc(C(=O)NNC(=O)c2ccc(S(=O)(=O)N3CC(C)OC(C)C3)cc2)c1 (stereo not given) | 12
S=C(c1c[nH]c2ccccc12)N1CCCC1 | 16

Reprinted from the part before: 3 compounds, then new ones.
SMILES | Biofilm kill mix
O=C(Nc1ncc(Cc2cccc(Cl)c2)s1)c1ccc([N+](=O)[O-])cc1 | 19
COc1cc(OC)cc(C(=O)NNC(=O)c2ccc(S(=O)(=O)N3CC(C)OC(C)C3)cc2)c1 (stereo not given) | 12
S=C(c1c[nH]c2ccccc12)N1CCCC1 | 16
COc1ccc(-c2csc(Nc3ccc(C)cn3)n2)cc1 | 10
C=CCc1c(O)c(CC)cc2c(C)cc(=O)oc12 | 27
Cc1cccn2c(=O)c(/C=C(\C#N)C(=O)NCc3ccco3)c(N3CCCCC3)nc12 | 9
COCCOc1cc(COC)nc(-c2cccc(C)c2)n1 | 19
O=c1c2c(nc3cc(-c4ccc(Cl)cc4)[nH]n13)CCS2 | 15
CCc1sc(C(=O)Nc2ccccc2N2CCOCC2)cc1C | 5
OCCN1CCN(c2nc(NCc3ccco3)c3ccccc3n2)CC1 | 8
Cc1cccc(C(=O)NC(CC(=O)O)c2ccc(OC3CCCC3)cc2)c1[N+](=O)[O-] (stereo not given) | 9
CC(=O)N1CCN2C(=O)C1CCCC(=O)c1cc(C)ccc12 (stereo not given) | -5
CC(=O)c1ccc2c(c1)OCCOCCOCCOCCOCCO2 | 25
N#Cc1ccc(-c2csc(-c3ccno3)n2)cc1 | 14
C/C(=N\NC(=O)CC1N=C(Cc2ccccc2)NNC1=O)c1ccc(Br)cc1 (stereo not given) | 17
O=C(CCc1ccccc1)N/N=C/c1cc(Br)ccc1O | 20
CS(=O)(=O)N(CCc1ccccc1)CC(=O)NCc1ccccc1 | 19
O=C(CN1C(=O)C2CCCCC2C1=O)N1CCN(c2ccccc2)CC1 (stereo not given) | 15
Nc1cc(=O)nc(SCC(=O)Nc2ccccc2Cl)n1-c1ccccc1 | 11
CCOc1ccc(NC(=S)Nc2ccccc2C2CC2)cc1 | 2
O=C(Nc1ccccc1C(=O)N1CCOCC1)c1ccc([N+](=O)[O-])cc1 | 1
C=CC[C@H]1CC(C)=C[C@H](CC=C)N1 | 14
O=C(Cn1nc(C(F)(F)F)c2c1CCCC2)N1CCOCC1 | 9

2 entries picked at random from those above:
SMILES | Biofilm kill mix
CCOc1ccc(NC(=S)Nc2ccccc2C2CC2)cc1 | 2
O=C(CCc1ccccc1)N/N=C/c1cc(Br)ccc1O | 20

The main list resumes with the 2 entries that preceded the break.
SMILES | Biofilm kill mix
C=CC[C@H]1CC(C)=C[C@H](CC=C)N1 | 14
O=C(Cn1nc(C(F)(F)F)c2c1CCCC2)N1CCOCC1 | 9
Cc1ccc(C(=O)N/N=C/C2=Cc3ccccc3OC2C)cc1 (stereo not given) | 11
OCC1(CC2CCCCO2)CCN(Cc2cccc(O)c2)CC1 (stereo not given) | 6
COc1ccc(/C(C)=N/NC(=O)C(NC(=O)c2ccccc2)c2n[nH]c(=O)c3ccccc23)c(OC)c1 (stereo not given) | 1
COc1ccc(Sc2ccc(/C=C3\C(=O)NN(c4ccccc4)C3=O)o2)cc1 | 21
COc1ccc(NC(=S)N(CCN2CCOCC2)Cc2cc3cc4c(cc3[nH]c2=O)OCCO4)cc1 | 31
CCCCNC(=O)CSc1nc2ccc(N3CCOCC3)cc2c(=O)n1CCc1ccccc1 | 28
CN(CCCCCNC(=O)/C=N/O)Cc1ccccc1 | 1
CC(C)CNC(=O)COC(=O)c1ccc([N+](=O)[O-])cc1Cl | 9
O=C(NN=C1CCCC1)C1COc2ccccc2O1 (stereo not given) | 8
CCOC(=O)c1cc(-c2cccs2)nc2c1c(C)nn2-c1ccccn1 | 14
N#CCN1C(=O)C2CCCN2c2ccc(S(=O)(=O)N3CCOCC3)cc21 (stereo not given) | 9
O=C(c1ccc(CSc2nc3ccncc3[nH]2)cc1)N1CCCCCC1 | 25
CCCN(CCC)C(=O)c1c(NC(=O)CC)sc2c1CCCCC2 | 15
COCCn1c(SCC(=O)c2ccccc2)nc2ccccc2c1=O | 29
COc1ccc([C@H]2C=C(C(=O)O)O[C@@H](OCc3ccc(CO)cc3)C2)cc1 | 9
O=C(N/N=C\c1cn[nH]c1-c1ccc(Cl)cc1)c1cccs1 | 24
COc1ccc2c(=O)c3c(=O)n(Cc4ccco4)c(C(C)C)nc3oc2c1 | -13
Cc1ccc(-c2[nH]ncc2CNCCc2cnn(-c3ccccc3)c2)cc1C | 25
COC(=O)COc1ccc(/C=N/NC(=O)c2ccc(N(Cc3ccccc3)S(C)(=O)=O)cc2)cc1 | 9
O=C(N/N=C/c1c[nH]c2ccccc12)C1CC(=O)N(c2ccccc2)C1 (stereo not given) | 4
Cc1ccc(O)c(-c2cc(C(=O)Nc3cccnc3)[nH]n2)c1 | 18
Cc1sc2ncnc(N3CCN(C(=O)c4ccco4)CC3)c2c1C | 14
O=C(Nc1ccccc1C(=O)N1CCCCCC1)c1ccccc1Cl | 12
CCC/C(C)=N\Nc1nc2c(c(=O)n(C)c(=O)n2C)n1C | 17
CC1CN(C(=O)c2ccn(C)n2)CC(C)O1 (stereo not given) | 6
Oc1cccc(/C=N/Nc2cccc3cccnc23)c1 | 24
COc1c(Br)cc(C(N)=O)cc1OCc1ccccc1 | 33
COc1ccc(CNc2ncnc3cc(Cl)ccc23)cc1OC | 13
COC(=O)COc1cc(OCC(=O)OC)c2c(C)c(Cl)c(=O)oc2c1 | 14
Cc1ccccc1C(=O)NCCNc1ccc([N+](=O)[O-])cc1 | 16
Fc1ccc(-c2ncc3ccccn23)cc1 | 13
Cc1ccccc1NC(=O)c1ccccn1 | 12
O=C(Nc1ccc2c(c1)OCCO2)c1ccoc1 | 7
COC(=O)Nc1ccc(S(=O)(=O)N2CCCCC2C(=O)O)cc1 (stereo not given) | -4
Cc1ccc(Oc2cc(NC(=O)CCCn3nc([N+](=O)[O-])cc3C)cc([N+](=O)[O-])c2)cc1 | 16
CCC(N=c1cc(-c2ccc(OC)cc2)oc2ccc(C)cc12)C(=O)O (stereo not given) | 4
c1ccc(OCc2noc(CN3CC[C@@H]4CCCC[C@H]4C3)n2)cc1 | 27
CC(Nc1nc(-c2ccccc2)nc2ccccc12)c1ccccc1 (stereo not given) | 0
Cc1ccc(NC(=O)Nc2ccc(Cl)cn2)cc1 | 11
COc1ccc(NC(=O)CCn2nnc(-c3ccc(C)cc3)n2)cc1OC | 15
COCc1cnc(C)nc1N | 4
Cc1nnc(Sc2nc3c(c(=O)[nH]c(=O)n3C)n2CCc2ccccc2)s1 | 19
COc1cc(/C=C(\C#N)c2ccccn2)ccc1OCC(=O)Nc1c(Cl)cccc1Cl | 14
COc1cc(C(=O)NCCCN(C)C)ccc1OCC(=O)Nc1cccc(C(F)(F)F)c1 | 14
Cc1cc(C)c2c(N)c3cccc(C)c3nc2n1 | 8
Cc1nn(-c2ccccc2Cl)c(Cl)c1/C=N/Nc1cccc(C(=O)O)c1 | 9
CC(=O)Nc1ccc(S(=O)(=O)Nc2nc3ccccc3nc2-n2ccc(=NC(=O)c3ccccc3)cc2)cc1 | 7
Cc1nn(-c2ccc([N+](=O)[O-])cc2)c(N)c1-c1ccccc1 | 14
N/C(=N/O)C(c1ccccc1)c1ccccc1 | 2
C=CCn1c(-c2cccc(S(=O)(=O)N(CC)CC)c2)n[nH]c1=S | 26

Remaining list, next part
SMILES | Biofilm kill mix
O=C1CC(=O)N(c2ccccc2)N1c1ccccc1 | 25
O=C(CSc1nnnn1-c1cccc(F)c1)Nc1nc2ccccc2s1 | 15
COc1ccc2[nH]c(C)c(CCNc3ccc(C(F)(F)F)cc3[N+](=O)[O-])c2c1 | 11
ClCC1NCC(c2ccccc2Cl)c2c1[nH]c1ccccc21 (stereo not given) | 20
COc1c(C(=O)NCCSC(C)(C)C)ccc2ccccc12 | 0
CCN(CC)C(=O)/C(=C/c1cccc([N+](=O)[O-])c1)NC(=O)c1ccco1 | 11
CC1CCCCN1C(=O)Cn1cnc2c1c(=O)n(C)c(=O)n2C (stereo not given) | 7
CC(NC(=O)NC(=O)c1ccc(Cl)cc1Cl)C1CC1 (stereo not given) | 27
CCn1c(CNc2ccc(Cl)cc2)nnc1SCc1ccc(C)cc1 | 18
Fc1cccc(C2NN=C(c3ccccc3)S2)c1 (stereo not given) | 7

A draw from above in order of number of heavy atoms, low to high.
SMILES | Biofilm kill mix
Cc1ccc(NC(=O)Nc2ccc(Cl)cn2)cc1 | 11
c1ccc(OCc2noc(CN3CC[C@@H]4CCCC[C@H]4C3)n2)cc1 | 27
O=C(c1ccc(CSc2nc3ccncc3[nH]2)cc1)N1CCCCCC1 | 25

Next part:
SMILES | Biofilm kill mix
COC(=O)c1cn(NC(=O)/C=C/c2cc(OC)ccc2OC)c(=O)c2ccccc12 | 17
CCOc1ccc(C(=O)N2CCN(c3ccccc3)CC2)cc1 | 9
O=C(CC1C(=O)NCCN1Cc1ccc(F)c(F)c1)NCCCn1ccnc1 (stereo not given) | 17
O=C1CC(N2CCC(c3nc4ccccc4[nH]3)CC2)C(=O)N1c1cccc(F)c1 (stereo not given) | 13
COc1ccc(C2c3[nH]c4ccccc4c3CCN2C(=O)Cc2nonc2C)c(F)c1 (stereo not given) | 13
CCNC(=O)NC(=O)COC(=O)CCCc1nc2ccccc2s1 | 10
Brc1cccc(OCCCN2CCCCCC2)c1 | 7
Nc1cc(=O)[nH]c(SCC(=O)Nc2nc3ccc([N+](=O)[O-])cc3s2)n1 | 8
Cc1ccc(NC(=O)CN2C(=O)S/C(=C\c3cc(C)n(-c4ccc(C(=O)O)cc4)c3C)C2=O)cc1 | 14
CC(=O)Nc1ccc(OCC(O)Cn2c(C(C)C)nc3ccccc32)cc1 (stereo not given) | 17
CCOc1cc(CNCc2ccncc2)cc(Cl)c1OC | 11
Cc1nc2ccc(NC(=O)COc3ccccc3[N+](=O)[O-])cc2s1 | 11
Cc1ccc(C(=O)OCn2nnc3ccccc3c2=O)cc1[N+](=O)[O-] | 23
Cc1[nH]c(=O)[nH]c(=O)c1NC(=O)c1sc2nc3c(C)cccc3cc2c1N | 15
N#CCSc1ncccc1-c1nc2ccccc2[nH]1 | 6
COC(=O)CCC(=O)N(CCN(C(=O)CCC(=O)OC)c1ccccc1)c1ccccc1 | 13
CC(C)c1ccccc1NC(=O)COC(=O)c1cc(=O)[nH]c(=O)[nH]1 | 21
Cc1ccc(-n2nnnc2-c2cnn(-c3ccc(F)cc3)c2C(F)(F)F)cc1 | 13
Cc1ccc(OC(=S)Nc2ccc(O)cc2)cc1 | 8
O=C(Nc1nnc(CCN2CCCCC2)s1)c1ccc(Br)cc1 | 15
CCOC(=O)C1(CC)NC(c2ccc(OC)cc2OC)C2C(=O)N(C)C(=O)C21 (stereo not given) | 20
CCOC(=O)C1(Cc2ccc(OC)cc2)CCN(C(=O)CN2CCCCC2=O)CC1 | -3
COCCOC(=O)/C(C#N)=C/c1cn(Cc2ccccc2)nc1-c1cccnc1 | -13
CO/N=C/c1c(-c2ccc(Cl)cc2)nc2cc(C)ccn12 | 15
COc1ccc(C(=S)N2CCN(c3cccc(Cl)c3)CC2)cc1 | 24&16
CCCCCC(=O)N1CC2(CC(c3cccc(NC(=O)CC(c4ccccc4)c4ccccc4)c3)=NO2)C[C@@H]1C(N)=O (stereo not given in full) | 7
C=CCNC(=S)NC(CC(=O)OC)c1ccc2c(c1)OCO2 (stereo not given) | -7
Cc1c(C(=O)C(=O)N2CCCc3ccccc32)c2ccccc2n1C | 27
COc1ccc(Nc2ccc([N+](=O)[O-])cc2[N+](=O)[O-])cc1 | 0
CC(=O)NCCC(=O)Nc1ccc(C(N)=O)cc1 | 4
O=C(NC(=S)Nc1ccc(CN2CCCCC2)cc1)c1cc2ccccc2o1 | 24
S=C(NC1CCCCC1)N1CCN(C/C=C/c2ccccc2)CC1 | 18
